# Screening results as filed in PubChem BioAssay.
# MT1-MMP act inh – blockers of MT1-MMP proenzyme processing, primary screen, HT1080 RFP-PRO-GFP cells, GFP/RFP fluorescence; Matrix metalloproteinase-14 (Homo sapiens), P50281; GFP/RFP ratio fluorescence, overnight; percent of plate control window, DMSO zero; GFP/RFP ratio change, % at 20 µM; 360,000 tested, 0.061% active; AID 651647, 2012;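 active means GFP/RFP ratio change of at least 30% with cell ATP level not reduced by more than half and red fluorescence within 50% of control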; further: strong numbers were not always called active
#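 Material: RFP-PRO-GFP reporter HT1080 cells. Dosing: single-point 20 µM compound, 1% DMSO. Controls: DMSO and RFP-L50D-GFP cell wells. Timing: cells overnight before dosing, compound overnight, 37 °C, 5% CO2. Measure: GFP/RFP fluorescence ratio.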
# CSC inhib – cancer stem cell viability inhibitors, primary screen, luminescence; cancer stem cell-like cells viability; inhibition, % at 7.5 µM; 300,000 tested, 1.1% active;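 active means mean at 75% or more and at least half the replicates too; inconclusive means mean and replicates disagree; tested in HMLE shEcad cells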;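 further: 0% = median of negative and 100% = median of positive control wells; the first replicate is given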
# Rce1 inh – yeast Rce1p protease inhibitors, primary screen, biochemical, fluorescence, cell-free homogeneous | yeast membranes, quenched prenylated peptide cleavage fluorescence | calls only | 290,000 tested, 0.27% active | AID 2563, 2010;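 active means fall in fluorescence gain of 50% or more versus controls, with final raw signal at or below 3038400; inconclusive means same 50% fall but final raw signal above 3038400; inactive means fall in fluorescence gain under 50%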;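 further: plate controls were neutral control wells for no effect and wells lacking membranes for full effect; tested at 10 µM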
# Target sequence (Q03530 whole entry, looked up): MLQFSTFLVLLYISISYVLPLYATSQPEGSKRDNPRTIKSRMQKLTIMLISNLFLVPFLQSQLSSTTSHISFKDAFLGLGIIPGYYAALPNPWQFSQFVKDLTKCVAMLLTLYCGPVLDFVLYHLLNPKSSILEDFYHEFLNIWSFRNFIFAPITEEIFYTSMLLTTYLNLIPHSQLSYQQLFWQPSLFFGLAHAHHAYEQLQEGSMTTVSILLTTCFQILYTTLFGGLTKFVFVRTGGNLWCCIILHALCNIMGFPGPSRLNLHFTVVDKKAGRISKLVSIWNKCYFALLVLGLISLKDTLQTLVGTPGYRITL
# PABP polyA inh – PABP poly(A) RNA binding inhibitors, primary screen, biochemical, fluorescence polarization, uHTS | Polyadenylate-binding protein 1 (Homo sapiens), P11940 | inhibition, % at 35 µM | 290,000 tested, 1% active;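 active means 50% or more with normal probe brightness, or confirmed in later tests; inconclusive means above 50% with abnormal brightness, or retests that disagree; inactive means below 50% or failed in later tests; about a fifth of its hits are not listed in these tables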;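 further: calls also rest on retests at 20 µM and on dose response follow-up; controls were probe without protein and protein plus probe with vehicle; some compounds called inactive have numbers as strong as hits; many hits fall short of the cut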
# eIF4H FP inh – human eIF4H binding inhibitors, primary screen, translation initiation inhibitor project, biochemical, uHTS, fluorescence polarization | Eukaryotic translation initiation factor 4H (Homo sapiens), Q15056 | eIF4H fluorescence polarization binding assay | inhibition, % at 35 µM | 290,000 tested, 0.94% active;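 active means 50% or more with normal probe brightness, or confirmed in later tests; inconclusive means above 50% with abnormal brightness, or retests that disagree; inactive means below 50% or failed in later tests; about a fifth of its hits are not listed in these tables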;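 further: calls also rest on retests at 20 µM and on dose response follow-up; 0% = protein and probe with vehicle and 100% = probe without protein; strong numbers were not always called active; many hits fall short of the cut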
# Env fusion inh – inhibitors of HIV-1 Env-driven cell-cell fusion, primary screen, HeLa-JRFL effector, CEM21 target cells, luciferase | inhibition, % at 12.3 µM | 360,000 tested, 1.1% active | AID 651610, 2012;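 active means mean replicate inhibition score of at least 50 and every replicate individually at or above 50; inconclusive means only one of the two criteria met; inactive means mean below 50 and not all replicates reaching 50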;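 further: 0% = plate neutral controls and 100% = maraviroc near 300 nM; one replicate is shown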
# UUG fidelity – modulators of yeast start codon fidelity, primary screen, whole organism, S. cerevisiae, single point, plate reader; S. cerevisiae UUG-firefly luciferase reporter, luminescence/redox ratio; AID 602363, 2012; activity score, % at 18.7 µM; 350,000 tested, 0.13% active;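 active means replicate mean at a twofold rise or more, about +100% in these data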;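 further: firefly luciferase made from a UUG start codon reports start codon fidelity; reporter light over untreated wells divided by growth signal over untreated wells; some hits fall short of that in this replicate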
# eIF4H FP inh retest – also measured in eIF4H FP inh; calls as there; inhibition, %; compound at 20 µM; confirmation average;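 mean of two retest wells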
# PABP polyA inh retest – further read-out of PABP polyA inh, marked with its call; inhibition, %; compound at 20 µM; confirmation repeats;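 mean of two retest wells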
# MT1-MMP act inh RFP – further read-out of MT1-MMP act inh, marked with its call; RFP signal change, %; measured here: RFP expression control read;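 0 = vehicle wells; hits needed this value within 50% of zero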
# * marks the source's active call; other numbers are inactive results; i = inactive; ? = inconclusive; · = no result given; & = joins results of further samples.
SMILES,MT1-MMP act inh,MT1-MMP act inh RFP,CSC inhib,Rce1 inh,PABP polyA inh,eIF4H FP inh,Env fusion inh,UUG fidelity,others
COc1ccc(S(=O)(=O)Nc2ccccn2)cc1C,0,5,-3,i,-6,-9,-7,·,
CCn1cc(C(=O)NCCCOC)c(=O)c2cc(S(=O)(=O)N(C)C)ccc21,0,-2,-24,i,1,-2,6,-21,
Cc1nc(Nc2cccc(C(C)O)c2)c2nnn(Cc3ccc(F)cc3)c2n1 (stereo not drawn),5,-5,1,i,-8,-13,-3,1,
O=C(COC(=O)c1cccnc1Cl)Nc1ncc(Cl)cc1Cl,-1,-1,-6,i,2,10,18,-12,
CC(C)n1nccc1NC(=O)Nc1ccccc1,1,6,-18,i,-14,-15,-4,-9,
COc1cc(/C=C/c2ccc3cccc(OC)c3n2)c(OC(C)=O)c([N+](=O)[O-])c1,13,-14,78*,i,-4,7,4,-14,
CCN(CC)C(=O)CSc1nc(O)c(Cc2ccccc2)c(=O)n1-c1ccccc1,1,3,3,i,-2,0,-115,-18,
c1ccc(-c2nc3cc4ccccc4cc3[nH]2)nc1,11,0,27,i,-6,12,-294,-72,
COc1ccc(C2/C=C\CN(S(=O)(=O)c3cccs3)CC(=O)N2Cc2ccc(F)cc2)cc1 (stereo not drawn),2,-1,-3,i,14,-17,29,-8,
Cc1ccc(NC(=O)[C@@H](C)NC(=O)[C@@H]2Cc3ccccc3CN2)cc1,3,7,-6,i,-8,-8,-10,-11,
CCc1cc(=O)[nH]c(SCC(=O)Nc2cc(C)on2)n1,2,1,-21,i,·,·,·,-6,
Nc1c(S(=O)(=O)O)cc(NC(=O)c2ccccc2)c2c1C(=O)c1ccccc1C2=O,57*,43*,17,i,112*,?,·,-2,PABP polyA inh retest=121*
C=CCc1cc(OC)ccc1OCC(O)CN1CCN(c2ccc(OC)cc2)CC1 (stereo not drawn),3&10,-3&-2,-14&11,i,32&5,-2&-4,18&10,16,
Cn1c(=O)cc(SCC(=O)Nc2ccccn2)c2ccccc21,·,·,9,i,7,-2,14,·,
Cc1nnc(N(C)C(=O)c2ccccn2)s1,-1,2,-5,i,-9,-2,·,-13,
CC[C@]12c3[nH]c4ccc(OC)cc4c3CCN1C(=O)C(CC(=O)NCCCn1ccnc1)C[C@@H]2C(=O)N1CCN(C(=O)c2ccco2)CC1 (stereo partly drawn),2,-2,·,·,·,·,-6,0,
COc1ccc(C(CNC(=O)COc2ccccc2-c2ccccc2)N2CCOCC2)cc1 (stereo not drawn),-2,-3,-6,i,-13,4,15,·,
CC(C)OCCCn1c(=N)c(S(=O)(=O)c2ccccc2)cc2c(=O)n3ccccc3nc21,-1,-1,-9,i,9,5,9,-2,
COc1ccc(/C=C2\CCn3c2nc2cc(C(=O)O)ccc2c3=O)cc1O,9,3,11,i,16,9,·,-10,
Cn1c2c(c(=O)n(C)c1=O)C(c1ccccc1Cl)CC(=O)N2 (stereo not drawn),-4,2,3,i,-3,4,0,-12,
C=CCNc1nc(-c2cccs2)c(CC(=O)O)s1,-4,1,2,i,2,35,7,-13,
Cc1ccc(N(C(=O)CCC(=O)Nc2nccs2)C(C(=O)NC(C)(C)C)c2ccc(O)cc2)cc1 (stereo not drawn),-4,0,·,i,-2,-7,44,0,
COc1ccc2c(=O)c3c(=O)n(-c4ccc(C)cc4)c(-c4ccccc4)nc3oc2c1,·,·,-20,i,-1,7,·,·,
CCCCNC(c1ccccc1)c1ccncc1 (stereo not drawn),-4,3,4,i,6,-1,·,1,
Cc1nn(C2CCS(=O)(=O)C2)c(C)c1CN(C)C(=O)c1ccccc1 (stereo not drawn),1,6,·,·,·,·,-1,-5,
CN(C)C(=O)CN(c1ccc2c(c1)OCO2)S(C)(=O)=O,4,1,4,i,0,-5,·,-11,
CN(C)CCCNc1nc2cc(-c3cnn(C)c3)sc2c(=O)n1C,-2,-1,·,·,·,·,-13,-24,
COc1ccccc1OCC(=O)Nc1ccc(S(=O)(=O)N2CCOCC2)cc1,1,0,-6,i,16,-2,-4,-15,
CCOC(=O)Cc1nnc(NC(=O)CSc2ccc(Cl)cc2)s1,6,3,·,i,-4,-3,-36,3,
COCCOC(=O)C1=C(C)N(c2ccccc2)C(=S)NC1c1ccccc1C(F)(F)F (stereo not drawn),5,-2,12,i,10,-16,4,69,
S=C(NC1CCCC1)N1CCN(c2ccc(Cl)cc2)CC1,3,-2,8,i,-4,-21,18,·,
CCOC(=O)C1=C(C)N(c2ccccc2)C(=O)/C1=C\c1ccco1,-4,4,-1,i,3,13,·,·,
CNc1nccc(-c2ccc(Cl)cc2)c1C#N,-2,-4,-2,i,2,-11,58*,·,
C=CCC(CC=C)(NC(=O)c1ccccc1)c1ccccc1,-1,2,-7,i,4,-1,·,-9,
Cc1ccc(S(=O)(=O)c2c(C)cc(C)nc2Oc2cccc(C(F)(F)F)c2)cc1,-7,-11,4,i,-14,-7,·,-6,
CC(=O)NC(c1cccs1)c1cc(Cl)c2ccccc2c1O (stereo not drawn),-16,3,36,·,·,·,0,-1,
C(=C\c1ccco1)/C1=NN(c2ccccc2)C(c2ccco2)C1 (stereo not drawn),-49,20,28,i,-6,71*,·,·,eIF4H FP inh retest=51*;PABP polyA inh retest=7
CCc1nnc(NC(=O)c2ccc(S(=O)(=O)N(CC)Cc3ccccc3)cc2)o1,11,6,·,i,-2,11,?,-32,
Cc1c(C(=O)NC(=S)NCc2cccnc2)oc2ccccc12,1,-8,18,i,-11,1,-27,·,
Cc1ccc(C(O)c2ncc(-c3ccccc3Cl)[nH]2)cc1F (stereo not drawn),0,-4,·,·,·,·,27,-11,

# Among those listed so far, two contain a COOH group:
SMILES,MT1-MMP act inh,MT1-MMP act inh RFP,CSC inhib,Rce1 inh,PABP polyA inh,eIF4H FP inh,Env fusion inh,UUG fidelity,others
COc1ccc(/C=C2\CCn3c2nc2cc(C(=O)O)ccc2c3=O)cc1O,9,3,11,i,16,9,·,-10,
C=CCNc1nc(-c2cccs2)c(CC(=O)O)s1,-4,1,2,i,2,35,7,-13,

# (list continues)
SMILES,MT1-MMP act inh,MT1-MMP act inh RFP,CSC inhib,Rce1 inh,PABP polyA inh,eIF4H FP inh,Env fusion inh,UUG fidelity,others
COc1ccccc1-c1sc2cc3c(cc2c1C#Cc1cncn1C)OCO3,-1,-5,138*,·,·,·,-22,-29,
CCCCOC(=O)C(C#N)c1nc2ccccc2nc1N1CCN(Cc2ccc3c(c2)OCO3)CC1 (stereo not drawn),-18,-8,-6,i,85*,54*,·,-2,
O=C(CCn1nnc2ccccc21)N1CCN(c2ccccc2)CC1,6,8,-5,i,-8,4,·,-11,
O=C(CSc1nnnn1C1CCCC1)Nc1ccccc1F,-1,0,-10,i,-2,-7,1,2,
CC(C)OP(=O)(OC(C)C)C(Nc1ccccc1)c1ccccc1C(F)(F)F (stereo not drawn),2,-2,30,i,-1,5,26,4,
COc1ccc(OC)c(NC(=S)N(CCc2c(C)[nH]c3ccccc23)Cc2cccs2)c1,0,-8,0,i,6,-4,-11,-15,
Cc1ccc(N(C)C(=O)n2cnc3ccccc32)cc1,-3,-4,·,i,-8,-2,19,-14,
CN1CCN(C(=O)c2ccccc2NC(=O)c2ccccc2Br)CC1,1,5,-5,i,-4,34,6,-10,
O=C(CCc1nnc(CCCc2ccccc2)o1)NCCc1ccccc1,0,2,9,i,-1,-6,-2,·,
C[C@@H]1CN([C@H](C)CO)C(=O)CCCn2nncc2CO[C@H]1CN(C)Cc1cccnc1,2,3,·,·,·,·,14,-3&-12,
COc1ccc(C(=O)Nc2ccc3c(c2)nc(CN2CCCC2)n3C)cc1,9,1,-2,i,2,-8,10,-24,
Cc1ccn2cc(CNS(=O)(=O)c3ccc4ccccc4c3)nc2c1,-2,2,2,i,-14,79,8,-12,eIF4H FP inh retest=7;PABP polyA inh retest=6
COc1ccccc1NC(=O)Nc1ccc(N2CCOCC2)cc1,2,2,-1,i,9,-1,-26,·,
Nc1cc(Nc2ccc(Br)cc2)nc(N)n1,0,1,8,i,30,49,-5,·,
COc1ccc(/C=C2\SC(=S)N(CCCC(=O)NC3CCCC3)C2=O)cc1OC,-6,4,14,i,30,49,17,-3,
CCOC(=O)Nc1nc(-c2ccc(F)cc2F)cs1,0,-3,19,i,-2,-11,-4,·,
O=C(CCc1nc(-c2ccccn2)no1)NCc1ccc2c(c1)OCO2,-2,0,1,i,-5,-5,-11,-17,
Cc1cc(C)cc(CC(=O)N2CCC2(C)C(=O)NS(=O)(=O)c2ccc(Cl)s2)c1 (stereo not drawn),0,6,·,·,·,·,13,-11,
COc1cccc(-c2csc3nnc(SCC(=O)c4ccc(NC(C)=O)cc4)n23)c1,1,-1,-3,i,-22,-8,·,-18,
CC12CC3(C)CC(C)(C1)CC(C(N)=O)(C2)C3,4,3,-16,i,-2,7,4,·,
Cc1ccc(C(=O)N2CCN(c3ccc([N+](=O)[O-])cc3-n3cccc3)CC2)cc1,-1,-7,39,i,8,-5,3,-9,
C=CCN1C(=O)CN=C1Nc1cc(C)cc(C)c1,-6,-1,-9,i,25,-4,·,-9,
O=C(c1ccc(F)cc1)c1ccc(N2CCCCC2)cc1,0,-4,1,i,-6,-6,-57,-4,
COc1ccc(-c2coc(CCC(=O)N3CCN(c4cc(C)ccc4C)CC3)n2)cc1,4,5,·,·,·,·,-3,-8,
Cc1cccc(CCNC(=O)C2CCCN(c3ncnc4c3nc3n4CCCCC3)C2)c1 (stereo not drawn),0,-1,-6,i,2,2,4,6,
Cc1onc(-c2ccccc2)c1C(=O)NC(C)C1CCCO1 (stereo not drawn),-8,2,-10,i,-10,0,-8,-11,
c1csc(Cn2c(-c3cccs3)nc3ccccc32)c1,1,-8,12,i,0,-9,26,5,
COc1ccc(OCC(=O)N2CCN(C(=O)COc3ccc(Br)cc3)CC2)cc1,0,-2,-11,i,-9,-6,-12,-4,
O=C(COC(=O)c1ccco1)NCC1CCCO1 (stereo not drawn),-1,5,3,i,-1,5,-13,3,
COc1cc([C@H]2OC[C@H]3[C@@H]2CO[C@@H]3c2ccc(O[C@H]3O[C@H](CO)[C@@H](O)[C@H](O)[C@H]3O)c(OC)c2)ccc1O[C@@H]1O[C@H](CO)[C@@H](O)[C@H](O)[C@H]1O,5,2,7,·,·,·,-30,-20,
CC1CC(C)CN(CCCNC(=O)Cn2ncc3c(=O)oc4ccccc4c32)C1 (stereo not drawn),-3,7,-4,i,2,-9,-36,-6,
CCCCN(Cc1cc2ccccc2[nH]c1=O)S(=O)(=O)c1ccc(C)cc1,-7,-20,1,i,-5,-4,-12,11,
CCOc1ccc(C(C)C)cc1S(=O)(=O)N1CCN(C(=O)c2ccco2)CC1,-2,0,5,i,4,-6,-5,-2,
O=C(O)c1cccc(O)c1O,-4,0,1,i,·,·,-9,-4,

# Not all compounds are listed. The share of hits here may be higher or lower than overall.
